Compound activity as filed in PubChem.
Epigenetic derep – derepresses silenced GFP reporter in murine cells; murine LDR cells, GFP reporter derepression, 30 h; Potency, µM (top dose mostly 53.9 µM), for the others: at the highest dose GFP activation, actives largely listed as activators; 0.2% of 280,000 active; AID 1865; further: % of control where 0% means no effect; nearly all actives have a fitted effect of over 60% in size
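Murine LDR cells bearing a silenced CMV-driven GFP reporter were exposed to compound for 30 h at 37 C. After PBS washes, GFP-positive cells (20-120 um objects) counted by laser-scanning microplate cytometry.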
GAA inh – blocks human lysosomal alpha-glucosidase; P10253; purified human GAA, 4-MU-alpha-glucoside fluorescence; Potency, µM (series often up to 76.9 µM), without a hit: top-dose activity change, negative = inhibition, hits mostly inhibitors; 0.005% of 200,000 active; AID 1466;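 further: plate controls were uninhibited enzyme wells for no effect and no-enzyme background for full effect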
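AC50 values come from Hill fits of compound titrations (up to 77 uM) against 4 nM human enzyme. Substrate 4-methylumbelliferyl-alpha-D-pyranoside at 400 uM, pH 5.0 citrate buffer, 20 min room temperature; fluorescence Ex 365/Em 440 after alkaline stop.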
GLA spleen mod – inhibitors or activators of human alpha-galactosidase in spleen homogenate | AID 2107 | 0.008% of 240,000 active | P06280 | human spleen homogenate, 4MU-alpha-Gal fluorescence, 40 min | Potency, µM (titrated, usually from 80 µM), without a hit: at the top dose activity change, negative = inhibition, actives largely listed as inhibitors;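 further: 0% = enzyme with vehicle and -100% = no enzyme basal signal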
Target sequence (P06280 32-429 limits assumed): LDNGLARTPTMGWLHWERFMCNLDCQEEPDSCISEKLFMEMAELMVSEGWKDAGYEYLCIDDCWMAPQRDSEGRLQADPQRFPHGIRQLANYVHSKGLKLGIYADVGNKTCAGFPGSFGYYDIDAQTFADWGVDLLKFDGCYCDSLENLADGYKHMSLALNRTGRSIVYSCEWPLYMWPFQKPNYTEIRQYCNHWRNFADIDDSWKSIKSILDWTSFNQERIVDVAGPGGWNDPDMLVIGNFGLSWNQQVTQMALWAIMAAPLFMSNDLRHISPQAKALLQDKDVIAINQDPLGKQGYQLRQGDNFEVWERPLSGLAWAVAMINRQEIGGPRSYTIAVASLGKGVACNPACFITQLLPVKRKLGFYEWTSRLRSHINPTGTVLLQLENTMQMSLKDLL
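Fluorogenic readout (Ex 365/Em 440 nm) of 4-methylumbelliferone released from 1 mM 4-MU-alpha-galactoside by spleen homogenate, 40 min at 37C, pH 5.0. Data normalized to no-enzyme and enzyme controls; Hill-equation AC50 from compound titrations.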
GAA glycogen – GAA glycogen-cleavage inhibition or activation | Potency, µM (highest dose often 76.4 µM), inactives show top-dose activity change, negative = inhibition, hits mostly inhibitors | 0.38% of 300,000 active | recombinant GAA, glycogen substrate, Amplex Red glucose oxidase fluorescence | P10253;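 further: 0% = full enzyme reaction and -100% = no-enzyme basal signal; the screen sought inhibitors and activators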
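Recombinant human alpha-glucosidase (4 nM final) hydrolysed bovine liver glycogen (30 ug) for 40 min at 37 C in pH 5.0 citrate/phosphate with 0.01% Tween-20. Released glucose detected by glucose oxidase/Amplex Red, Ex 573/Em 610 nm. Compounds up to 77 uM; AC50 from Hill fits.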
aGlu spleen mod – lysosomal alpha-glucosidase (human) modulation; AID 2112; human spleen homogenate, 4-MU-alpha-glucoside fluorescence; Potency, µM (series often up to 79.9 µM), inactives show at the highest dose activity change, negative = inhibition, most hits filed as inhibitors; 0.006% of 240,000 active; P10253;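 further: 0% = enzyme with vehicle and -100% = no enzyme basal signal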
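AC50 values come from Hill-equation fits of concentration-response data, normalized to no-enzyme and full-activity controls. Enzyme source: 1 ug human spleen homogenate; 1 mM fluorogenic 4-MU glucoside, pH 5.0 citrate buffer, 37 C, 40 min.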
Tau fluor cs – counter-screen for tau fibril formation inhibitors | tau K18 P301L Alexa594 fluorescence, heparin fibrillization | Potency, µM (doses to about 57.7 µM), for the others: at the top dose activity change, negative = decrease | 0.93% of 280,000 active; further: on the % scale 0 is the no-effect control and ±100 the full control effect; nearly all actives have a fitted effect of over 55% in size
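Human tau K18 P301L (15 uM unlabeled, 0.24 uM Alexa 594-labeled) in 100 mM sodium acetate pH 7 with 20 uM heparin, 6 hr at 37 C. ThT 30 uM added, 1 hr ambient; Alexa 594 FP and total fluorescence read at 555/632 nm.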
ALDH1A1 block – blocks purified human ALDH1A1 activity | P00352 | Purified ALDH1A1, NADH fluorescence, propionaldehyde substrate | Potency, µM (series often up to 75.3 µM), for inactives: at the top dose activity, negative = inhibition, usual class: inhibitors | AID 1030 | 7.3% of 220,000 active; active means well fitted inhibition curve with a large enough effect, not every such curve was filed as active; inconclusive means small, poorly fitted or top-dose-only effect, or another doubt; inactive means no such curve, though single readings can be large or run the other way;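 further: plate controls were no enzyme wells and a reference inhibitor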
Target sequence (P00352 whole entry, looked up): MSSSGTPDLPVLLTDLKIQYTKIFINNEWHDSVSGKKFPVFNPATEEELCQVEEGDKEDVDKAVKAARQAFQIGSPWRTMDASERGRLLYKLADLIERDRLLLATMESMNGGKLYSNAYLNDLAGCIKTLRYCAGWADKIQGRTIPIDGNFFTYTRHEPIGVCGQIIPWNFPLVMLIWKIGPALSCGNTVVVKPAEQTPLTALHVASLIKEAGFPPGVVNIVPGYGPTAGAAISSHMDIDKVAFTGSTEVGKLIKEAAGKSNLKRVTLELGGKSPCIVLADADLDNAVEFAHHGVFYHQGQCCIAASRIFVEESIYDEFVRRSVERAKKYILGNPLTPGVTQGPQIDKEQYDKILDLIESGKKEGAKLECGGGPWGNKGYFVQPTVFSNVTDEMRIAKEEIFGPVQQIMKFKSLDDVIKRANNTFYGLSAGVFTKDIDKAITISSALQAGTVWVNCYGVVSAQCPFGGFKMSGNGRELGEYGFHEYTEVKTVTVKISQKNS
* hit, by the source's call; ? = inconclusive; . = no result given; [ ] = dose if it differs, or a comment. Unless noted, the call rests on the fitted dose curve; in most records, active means well fitted curve in the direction sought with a large enough effect; inconclusive means small, poorly fitted or top-dose-only effect, or another doubt; inactive means no such curve, though single readings can be large; an effect the other way counts as inactive or inconclusive. Potency means the concentration at half of the fitted maximal effect. An excerpt, so the mix of outcomes need not match the whole.

Every second line gives: Epigenetic derep | GAA inh | GLA spleen mod | GAA glycogen | aGlu spleen mod | Tau fluor cs | ALDH1A1 block
COc1cccc(CNC(=O)C2CCCN(c3nc4ccccc4o3)C2)c1 (stereo unspecified)
 : -0.9% | -3.5% | -2.9% | 12.8% | -10.6% | -6.8% | ?
COc1cc2c(cc1NC(=O)CN(C)Cc1nc3ccccc3c(=O)[nH]1)oc1ccccc12
 : -6.6% | -10.4% | 1.5% | -11.4% | -3.6% | ? | ?
O=C1CCC/C(=N/NC(=O)c2ccc(NS(=O)(=O)c3cccs3)cc2)C1
 : -0.2% | -0.9% | -1.1% | ? | 0.8% | -10.1% | 11.1%
COc1ccc(-n2c3c(c(=O)[nH]c2=O)C(NC(=O)c2ccncc2)(C(F)(F)F)C(=O)N3)cc1 (stereo unspecified)
 : 2.3% | 1.8% | -5.3% | 5.1% | 1.2% | -2.2% | 7.7%
COc1cccc2cc(C(C)N(CCCN3CCOCC3)C(=S)Nc3cc(C)cc(C)c3)oc12 (stereo unspecified)
 : -1.0% | -17.2% | -3.0% | -1.5% | . | -8.5% | 10.5%
CCCCCCC(=O)N1CCC(c2nc3c(nnn3Cc3ccccc3Cl)c(=O)[nH]2)CC1
 : 0.0% | ? | 0.7% | -2.3% | -7.2% | -6.8% | ?
CN(C)c1nc(Oc2ccc(C(=O)OCC(=O)Nc3ccccc3)cc2)nc(N(C)C)n1
 : 1.9% | ? | 2.8% | -14.8% | -4.6% | -26.7% | 0.5%
CC[C@@H]1CC=C[C@H]2[C@H]1C(=O)N(Cc1ccccc1)[C@H]2c1cc(C)ccc1F
 : 0.0% | . | -1.3% | 2.7% | -4.7% | -0.2% | .
O=C(COC(=O)c1cccs1)Nc1cccc(S(=O)(=O)NC2=NCCCCC2)c1
 : 8.9% | -0.7% | 4.9% | -3.9% | -14.3% | 0.2% | 2.3%
O=c1c2cc(N3CCOCC3)ccc2[nH]c(=S)n1Cc1ccccc1Cl
 : 1.1% | 11.8% | -16.0% | 5.1% | 0.5% | -27.5% | ?
CC(CC(=O)c1cccs1)CC(=O)c1cccs1
 : -0.9% | -4.6% | -7.8% | -10.2% | -9.4% | -9.8% | 7.94µM*
COc1ccccc1C(=O)Nc1ccccc1C(=O)N1C(C)CCCC1C (stereo unspecified)
 : -0.6% | -11.3% | -4.6% | 24.8% | 0.8% | -0.7% | -0.4%
Clc1cccc(-c2cc3nc4c(c(N5CCN(c6cnccn6)CC5)n3n2)CCCC4)c1
 : 0.1% | ? | -3.1% | 5.8% | -1.5% | -6.9% | ?
CCOc1ccc(C(C(=O)NC2CCCCC2)N(C(=O)c2ccccn2)c2cccnc2)cc1 (stereo unspecified)
 : -1.1% | -1.0% | 2.2% | 5.4% | -3.1% | 7.6% | 0.2%
COc1ccccc1NC(=O)C1=C(C)Nc2nnnn2C1c1ccncc1 (stereo unspecified)
 : 5.7% | -7.5% | -14.8% | 0.3% | -3.2% | -3.7% | -0.9%
CN(C)c1ccc(/C=N/N2C(=S)SC(C)(C)C2N(O)C(=O)Nc2ccc([N+](=O)[O-])cc2)cc1 (stereo unspecified)
 : 0.8% | -12.6% | -4.1% | -16.2% | -4.6% | 11.2µM*[quencher] | 12.6µM*
c1ccc(C(c2nnnn2C2CCCC2)N2CCCCCC2)nc1 (stereo unspecified)
 : 0.8% | 0.1%[15.4 µM] | -5.2% | 6.5% | 5.1% | -1.8% | ?
Cc1ccc(C)c(NC(=O)CN(C)C(=O)[C@@H](NC(=O)c2ccc(C(C)(C)C)cc2)C(C)C)c1
 : -0.1% | -5.0% | 0.7% | 7.7% | -0.7% | -14.7% | -6.4%
Cc1nc2cc(F)ccc2n1C1CCN(C(=O)c2ccc(F)cc2F)CC1
 : 1.1% | 3.5% | -1.2% | 0.2% | 0.7% | -12.5% | -0.3%
O=C(COc1ccc(S(=O)(=O)NC2CCCCC2)cc1Cl)Nc1ccc2c(c1)OCO2
 : 1.4% | -0.6% | -1.4% | -10.9% | -7.2% | ? | -4.5%
O=C(NCc1cccc(Cl)c1)c1ccc(S(=O)(=O)Nc2cccc(C(F)(F)F)c2)cc1
 : -0.1% | -2.9% | -2.4% | -1.5% | -3.8% | ? | 13.6%
CCOC(=O)CSc1nc2ccccc2c(=O)n1C1CCCC1
 : -2.1% | -4.2% | -1.2% | -21.9% | -3.0% | -1.7% | -3.0%
CC(C)Cn1c(SCC(=O)N2CCc3ccccc3C2)nc2cc(Cl)ccc2c1=O
 : -0.3% | -0.6% | -5.2% | 3.6% | 1.5% | 1.9% | 10µM*
N=c1c2c(-c3ccccc3)c(-c3ccccc3)n(Cc3ccco3)c2ncn1CCN1CCOCC1
 : 0.6% | -4.4% | 5.2% | -5.9% | 0.3% | 3.6% | 4.3%
CCC(=O)N(CCC(Cc1ccccc1)c1ccco1)Cc1ccco1 (stereo unspecified)
 : 1.1% | 1.9% | -6.3% | -8.1% | -3.1% | -0.7% | 14.1µM*
Cc1ccc(-c2nn3c(C)nnc3s2)cc1N
 : 0.8% | -7.1% | 2.9% | 5.1% | -2.0% | 4.5% | 3.7%
COc1ccc(Nc2nc(-c3ccc(OC)cc3)c(CCC(=O)O)s2)cc1
 : 0.9% | . | 2.1% | ? | -1.5% | -18.4% | .
CCc1ccc(-n2c(SCC(=O)Nc3cc(C)[nH]n3)nc3[nH]ncc3c2=O)cc1
 : -0.2% | -0.2% | -4.5% | -7.6% | -10.0% | -12.3% | 3.7%
O=C(/C=C/c1cccc([N+](=O)[O-])c1)N1CCOCC1
 : 0.0% | -0.6% | -0.8% | 3.3% | -1.3% | -1.0% | ?
Cc1ccc(NCc2nnc(SCC(=O)N(Cc3ccccc3)C(C)(C)C)o2)c(C)c1
 : 0.0% | -9.8% | 8.3% | -4.0% | 4.9% | -25.3% | ?
COc1ccc(/C=C2\Sc3ccc(C(=O)N4CCc5ccccc5C4)cc3N(C)C2=O)cc1
 : 0.0% | 3.6% | 3.7% | -4.7% | -1.9% | -12.3% | -2.0%
Cc1ccc(C2=NNC(C(O)C(O)C(O)C(C)O)S2)cc1 (stereo unspecified)
 : -5.8% | 2.0% | 3.9% | ? | 2.7% | -11.8% | ?
CCOC(=O)CCNC(=O)Nc1ccc2nc(C)n(Cc3ccc(Cl)cc3)c(=O)c2c1
 : -1.6% | -12.7% | 5.1% | -2.3% | -3.4% | -28.8% | ?
Cc1cccc(N2C(N)=NC(N)=NC23CCCCC3)c1
 : 2.6% | 3.3% | -0.5% | -10.6% | -1.7% | -1.7% | 22.0%
CC(Sc1nc(N2CCOCC2)c2c(c1C#N)CC(C)(C)OC2)C(=O)Nc1ccccc1 (stereo unspecified)
 : -0.8% | -1.9% | -9.3% | 2.1% | -3.7% | -13.4% | -6.4%
COC(=O)c1cc(=O)n(Cc2ccc(F)cc2)c(=Nc2ccccc2)s1
 : 0.9% | . | 3.4% | -6.5% | -3.2% | -9.9% | .
CCOC(=O)C1CCN(c2c(N3CCN(Cc4ccccc4)CC3)c(=O)c2=O)CC1
 : 0.2% | -2.9% | -1.5% | 28.2% | -5.3% | -6.6% | ?
CCOC(=O)Cn1c(=NC(=O)c2cccs2)sc2cc(C(=O)OC)ccc21
 : -1.3% | 1.1% | -2.3% | 3.8% | -15.4% | 0.5% | ?
COc1ccccc1-c1nnc(SCC(=O)c2ccc(C3CCCCC3)cc2)n1Cc1ccco1
 : -0.1% | ? | 2.8% | -9.6% | -7.0% | -14.5% | ?
O=C(N[C@@H](Cc1ccccc1)C(=O)NC1CCCCC1)c1ccco1
 : -2.7% | 1.1% | -3.9% | 0.6% | 2.8% | 0.8% | -5.5%
COc1ccc(-c2cc(-c3n[nH]c(=S)n3-c3ccccc3OC)[nH]n2)cc1
 : -1.9% | -29.5% | 3.5% | 4.7% | -10.8% | -16.5% | ?
CCCNC(=O)c1ccc(Cl)cc1Cl
 : -0.4% | . | 4.2% | 0.3% | 4.3% | -6.9% | .
O=C(Nc1cccnc1)c1sc(Nc2ccccc2)nc1-c1ccccc1
 : -0.9% | 0.3% | 17.8% | -2.3% | 12.2% | -25.1% | ?
CC(C)c1ccc(C(C(=O)NC2CCCCC2)N(C(=O)c2ccccn2)c2cccnc2)cc1 (stereo unspecified)
 : 0.0% | 0.7% | -4.1% | -14.1% | 0.8% | -3.5% | ?
Cc1ccc(C(=O)NNC(=O)C2CCN(c3nc(C)cc(C)n3)CC2)cc1
 : 0.0% | 3.4% | -2.8% | -6.1% | -2.0% | 10.0% | -1.1%
Cc1sc2nc(CN3CCCC3)nc(N3CCN(S(=O)(=O)c4cccs4)CC3)c2c1C
 : -7.2% | ? | 10.7% | -25.8% | 2.9% | 2.1% | ?
O=C(NCCc1ccccc1)Nc1ccc(Cl)cc1
 : 0.0% | 0.1% | 3.0% | 13.2% | 0.0% | -4.8% | 8.1%
Cc1ccc(C)c(Cn2nnc3c(=O)[nH]c(C4CCCN(C(=O)C5CCCCC5)C4)nc32)c1 (stereo unspecified)
 : -1.9% | -9.2% | 1.6% | -4.5% | -7.7% | -12.3% | 12.6µM*
COc1cccc(C=Nc2ccccc2C(=O)Nc2nccs2)c1OC
 : -3.3% | ? | 19.2% | 6.1% | 5.1% | ? | ?
COC(=O)C1=NN(c2ccc(C)cc2)C2C(=O)N(c3ccccc3OC)C(=O)C12 (stereo unspecified)
 : -0.9% | . | -4.2% | -2.0% | 2.4% | 5.2% | .
Cc1ccc2c(c1)-c1nc3ccccc3cc1C2=NC1CCCCC1
 : -2.2% | -8.0% | -6.4% | -0.9% | -22.8% | -21.4% | -1.0%
CCOC(=O)CN(C(=O)c1ccccc1)c1ccccc1C
 : -1.1% | -1.3% | -12.4% | -2.5% | -11.1% | -3.1% | 8.3%
CCOC(=O)Cn1c(C)c(C#N)c2ccccc21
 : 0.0% | -7.3% | 11.4% | 0.2% | -15.0% | -8.9% | 7.8%
CCc1ccc(/C=c2\s/c(=C\C(=O)C(C)(C)C)[nH]c2=O)cc1
 : 4.3% | -18.9% | -5.9% | -13.1% | -2.4% | ? | -6.7%

Retrieved by compound from the list above:
Every second line gives: Epigenetic derep | GAA inh | GLA spleen mod | GAA glycogen | aGlu spleen mod | Tau fluor cs | ALDH1A1 block
CCCNC(=O)c1ccc(Cl)cc1Cl
 : -0.4% | . | 4.2% | 0.3% | 4.3% | -6.9% | .
Cc1ccc2c(c1)-c1nc3ccccc3cc1C2=NC1CCCCC1
 : -2.2% | -8.0% | -6.4% | -0.9% | -22.8% | -21.4% | -1.0%
Cc1sc2nc(CN3CCCC3)nc(N3CCN(S(=O)(=O)c4cccs4)CC3)c2c1C
 : -7.2% | ? | 10.7% | -25.8% | 2.9% | 2.1% | ?
